Compound activity from PubChem.
MT1-MMP act inh: blocks activation of human MT1-MMP. P50281. HT1080 RFP-PRO-GFP cells, GFP/RFP ratio fluorescence, overnight; percent of plate control window, DMSO zero. GFP/RFP ratio change, % at 20 µM. actives 0.061% (n = 360,000);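 active = GFP/RFP ratio change of at least 30% with cell ATP level not reduced by more than half and red fluorescence within 50% of control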; note: strong numbers were not always called active
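Assay system: RFP-PRO-GFP reporter HT1080 cells; read-out basis: GFP/RFP fluorescence ratio; benchmarks: DMSO wells and RFP-L50D-GFP cells; doses: 20 µM single dose, 1% DMSO; schedule: overnight cell settling, then overnight compound exposure, 37 °C, 5% CO2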
CSC inhib: blocks cancer stem cells; cancer stem cell-like cells viability, luminescence; inhibition, % at 7.5 µM; actives 1.1% (n = 300,000); AID 2717;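 active = mean at 75% or more and at least half the replicates too; tested in HMLE shEcad cells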;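 note: 0% = median of negative and 100% = median of positive control wells; the first replicate is given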
Rce1 inhib: blocks yeast Ras-converting enzyme. Q03530. yeast membranes, quenched prenylated peptide cleavage fluorescence. calls only. actives 0.27% (n = 290,000). AID 2563;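 active = fall in fluorescence gain of 50% or more versus controls, with final raw signal at or below 3038400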;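 note: plate controls were neutral control wells for no effect and wells lacking membranes for full effect; tested at 10 µM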
Env fusion inh: blocks HIV Env-driven cell-cell fusion; HeLa-JRFL Env/CEM21 cell fusion, luciferase; actives 1.1% (n = 360,000); inhibition, % at 12.3 µM; AID 651610;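 active = mean replicate inhibition score of at least 50 and every replicate individually at or above 50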;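 note: 0% = plate neutral controls and 100% = maraviroc near 300 nM; one replicate is shown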
Yeast UUG start: yeast start codon fidelity modulation. S. cerevisiae UUG-firefly luciferase reporter, luminescence/redox ratio. activity score, % at 18.7 µM. actives 0.13% (n = 350,000);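 active = replicate mean at a twofold rise or more, about +100% in these data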;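 note: firefly luciferase made from a UUG start codon reports start codon fidelity; reporter light over untreated wells divided by growth signal over untreated wells; some hits fall short of that in this replicate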
eIF4H inh: inhibitors of RNA binding by human eIF4H | eIF4H fluorescence polarization binding assay | inhibition, % at 35 µM | actives 0.94% (n = 290,000) | AID 2012;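 active = 50% or more with normal probe brightness, or confirmed in later tests; about a fifth of its hits are not listed in these tables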;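 note: calls also rest on retests at 20 µM and on dose response follow-up; 0% = protein and probe with vehicle and 100% = probe without protein; strong numbers were not always called active; many hits fall short of the cut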
PABP FP inh: blocks human PABP binding to poly(A) RNA. actives 1% (n = 290,000). fluorescence polarization. inhibition, % at 35 µM;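 active = 50% or more with normal probe brightness, or confirmed in later tests; about a fifth of its hits are not listed in these tables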;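 note: calls also rest on retests at 20 µM and on dose response follow-up; controls were probe without protein and protein plus probe with vehicle; some compounds called inactive have numbers as strong as hits; many hits fall short of the cut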
Target sequence (P11940 whole entry, looked up): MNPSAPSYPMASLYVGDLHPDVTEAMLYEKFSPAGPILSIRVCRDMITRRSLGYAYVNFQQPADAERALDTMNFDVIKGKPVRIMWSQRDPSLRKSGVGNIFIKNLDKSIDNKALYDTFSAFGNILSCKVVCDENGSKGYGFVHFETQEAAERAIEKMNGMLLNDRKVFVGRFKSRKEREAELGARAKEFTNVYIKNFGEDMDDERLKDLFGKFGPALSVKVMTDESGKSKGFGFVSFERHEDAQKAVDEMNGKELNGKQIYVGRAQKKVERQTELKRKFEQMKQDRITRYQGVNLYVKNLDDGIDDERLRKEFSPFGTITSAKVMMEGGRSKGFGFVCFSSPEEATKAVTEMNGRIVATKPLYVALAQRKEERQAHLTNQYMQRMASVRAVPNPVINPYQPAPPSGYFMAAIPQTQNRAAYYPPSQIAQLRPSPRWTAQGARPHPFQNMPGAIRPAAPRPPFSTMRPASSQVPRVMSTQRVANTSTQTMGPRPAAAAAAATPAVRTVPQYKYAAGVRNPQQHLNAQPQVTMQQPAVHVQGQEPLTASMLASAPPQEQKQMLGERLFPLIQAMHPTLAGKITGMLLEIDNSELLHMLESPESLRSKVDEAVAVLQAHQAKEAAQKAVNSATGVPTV
MT1-MMP act inh RFP: second read-out of MT1-MMP act inh, no call of its own (marks repeat the call); RFP signal change, %; measured here: RFP expression control read;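 0 = vehicle wells; hits needed this value within 50% of zero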
Numbers without * were called inactive; i = inactive; . = not tested or not shown; & = joins results of further samples.

Every second line gives: MT1-MMP act inh, MT1-MMP act inh RFP, CSC inhib, Rce1 inhib, Env fusion inh, Yeast UUG start, eIF4H inh, PABP FP inh
[1] Cc1ccnc(NC(=O)c2cccc(S(=O)(=O)N3CCCC3)c2)c1
 : 3, 0, ., i, 3, -11, -2, 4
[2] COc1ccc(C(=O)c2ccc(OC)c(Br)c2)cc1Br
 : -2, 0, 11, i, 4, 13, 2, -6
[3] O=C(Nc1nnc([C@H]2C[C@H](O)[C@@H](CO)O2)s1)Nc1ccc(F)cc1F
 : -2, -1, ., ., 0, -16, ., .
[4] O=C(NNc1ccccc1Br)C(O)(c1cccc(C(F)(F)F)c1)c1cccc(C(F)(F)F)c1
 : -54, -43, 12, i, -25, ., 6, 4
[5] CC(C)(C)NC(=O)CN(Cc1cccs1)C(=O)c1csnn1
 : 1, 7, -1, i, -50, -6, 0, 6
[6] COc1ccc(-n2ncc3c(SCC(=O)NNC(C)=O)ncnc32)cc1
 : 1, 0, 3, i, -29, ., 4, -4
[7] O=C(COc1ccccc1)NC1CCSc2ccccc21 (stereo not given)
 : -1, 1, -5, i, 5, ., ., .
[8] Cc1cc(=O)[nH]c(NCCO)n1
 : 0, 2, 3, i, 1, ., -2, 6
[9] O=C(N/N=C/c1sc(=O)n(Cc2ccc(Br)cc2)c1Cl)c1ccco1
 : -5, -1, -10, i, -10, ., 0, -8
[10] COc1ccc(CNC(=O)C(C)Sc2ccc(S(=O)(=O)N3CCOCC3)cn2)cc1 (stereo not given)
 : 1, 0, ., ., 16, -1, ., .
[11] CCCNc1ccc(C(=O)OCC)cc1[N+](=O)[O-]
 : 3, 4, 0, i, 8, -5, -6, 2
[12] O=C(CSc1ncn[nH]1)N/N=C/c1ccc(C(F)(F)F)cc1
 : 1, 2, -8, ., -9, -17, 6, 2
[13] Cc1ccc2[nH]c(C(=O)N3CCC(C(N)=O)CC3)cc2c1
 : -2, 1, -15, i, -33, -7, -2, -5
[14] CCOc1ccc(-c2nc(C#N)c(NC3CC3)o2)cc1
 : 4, 6, -5, i, ., 2, 10, -4
[15] CC(C)(C)N=C1SCC(C)(/C=N/O)S1 (stereo not given)
 : -4, 0, ., i, 6, ., -2, -4
[16] CSc1sc(C)cc1/C=N/O
 : -3, 0, -2, i, 13, ., -1, -8
[17] CC(C)(C)c1ccc(S(=O)(=O)NCc2ccccn2)cc1
 : 3, -8, -8, i, -11, -8, 5, 3
[18] COc1ccc(C)cc1NC(=O)C(Sc1nnc(-c2cccs2)o1)c1ccccc1 (stereo not given)
 : 2, 5, -15, i, -44, -20, -5, 11
[19] CCOC(=O)C(C)n1cnc2c(nnn2-c2cccc(Cl)c2)c1=O (stereo not given)
 : 2, 2, -6, i, 13, -12, -6, -5
[20] Nc1ccc2nc(CCCO)[nH]c2c1
 : 6, 6, ., i, 0, -19, 6, 9
[21] Cc1cc(-c2nnc(CCC(=O)N(CC3CC3)CC3CCCO3)o2)no1 (stereo not given)
 : -1, 1, -20, i, 0, ., -4, 14
[22] COc1ccc2cc(-c3ccon3)ccc2c1
 : -4, -4, ., i, -49, 2, -6, -1
[23] O=C(Nc1cccc2c1CCCC2)C1CCN(c2nnnn2-c2ccccc2)CC1
 : 2, -1, -12, i, -5, -8, -6, 15
[24] CN(c1c[nH]c(=O)[nH]c1=O)C1CCCCC1
 : 4, 4, ., i, 5, ., -2, -13
[25] COc1ccc(/C=N/NC(=O)c2cccnc2)cc1CN1CCc2cc(OC)c(OC)cc2C1C (stereo not given)
 : 4, 4, 0, i, 7, ., -12, 6
[26] O=C(Oc1cccc2cccnc12)c1cccc(N2C(=O)C3C4CCC(C4)C3C2=O)c1 (stereo not given)
 : ., ., 3, i, ., ., 21, 1
[27] COc1ccc(N(CC(=O)N2CCN(C)CC2)S(=O)(=O)c2ccccc2)cc1OC
 : 0, -7, -5, i, -21, -6, -11, 8
[28] CC1(C)COC2(OC1)C(=O)Nc1ccccc12
 : 2, 5, -2, i, 10, 8, 1, -2
[29] O=C(CNS(=O)(=O)c1cccc(Br)c1)NCC1CCCCC1
 : -1, -3, -6, i, 1, -17, 1, -2
[30] C=CCNC(=S)N1CCN(CCN=Cc2c(C)[nH]n(-c3ccc([N+](=O)[O-])cc3)c2=O)CC1
 : 0, 7, 44, i, 0, 14, 6, -3
[31] Cc1cccc(N(C(=O)c2ccc(CN3CCOCC3)o2)C(C(=O)NC2CCCCC2)c2ccc(F)cc2)c1 (stereo not given)
 : 3, 5, 10, i, ., 1, -4, 5
[32] COc1cccc(CNC(=O)C2CCN(S(=O)(=O)c3ccc(C)cc3)CC2)c1
 : 0, 1, -16, i, -1, 4, 0, -4
[33] COc1ccc(C)cc1NC(=O)CN1CCN(c2ccc(F)cc2)CC1
 : -3, -2, 1, i, ., -13, -1, -10
[34] CC1=C(C(=O)OCc2ccccc2)C(c2ccco2)C2=C(CC(C)(C)CC2=O)N1 (stereo not given)
 : -6, -6, -10, i, ., 1, 3, 2
[35] COc1c(Br)cc(Br)cc1/C=N/NC(=O)c1cccnc1
 : -5, -7, -3, i, -1, -12, -6, 6
[36] COC(=O)Cc1[nH]nc2c1C(c1cccc(OC)c1OC)C(C#N)=C(N)O2 (stereo not given)
 : -1, -2, ., ., -38, -14, -3, 8
[37] COc1ccccc1C(=O)NC(=S)Nc1ccc(N2CCCC2)cc1
 : -4, -4, -1, i, 29, ., -4, -6
[38] CCN(CCNC(=O)c1cccc(N2CCCC2=O)c1)c1ccccc1
 : 0, -2, -10, ., -71, -10, -1, -5
[39] Cc1ccccc1NC(=O)C1c2cccc[n+]2CC(=O)N1c1c(C)cccc1C (stereo not given)
 : -16, 10, -5, i, -86, -10, -1, 22
[40] COC(=O)CSc1nc(NC(C)(C)C)nc(N(C)C)n1
 : 2, -1, -8, i, -29, ., 4, 1
[41] COc1ccc(OCC(=O)N2CCC(Cc3ccccc3)CC2)cc1
 : 2, 1, -11, ., 3, -3, 3, -6
[42] CCCCn1c2c(c(=O)n(C)c1=O)C(CC(=O)OCC(=O)Nc1cccc(C(F)(F)F)c1)C(=O)N2 (stereo not given)
 : 0, 3, -1, i, ., -12, -6, 3
[43] Cc1cccc(Nc2ncnc3c2cnn3C)c1
 : -1, 2, -15, i, -117, -7, 0, -4
[44] COc1cccc(N(CC(=O)NC(C)(C)C)C(=O)C2CSC(=O)C2)c1 (stereo not given)
 : 2, 2, -4, i, ., 5, 4, -6
[45] Cc1ccc(OCC(=O)NCCC2=CCCCC2)cc1
 : 0, 2, -1, i, 10, 8, 14, -2
[46] CC(C)N1CC2=C(C1=O)C(c1ccc(O)cc1)NC(=O)N2C (stereo not given)
 : -1, 0, -12, i, -11, ., 0, -8
[47] Cc1ccc(S(=O)(=O)c2c(C)cc(C)nc2N2CCCC2)cc1
 : -5, -2, -5, i, 9, ., 4, -16
[48] CC1(C)CC(=O)/C(=C(/O)Cc2ccccc2)C(=NCCc2ccccc2)C1
 : 1, -1, 10, i, 3, ., 2, -3
[49] CCNC(=O)C1(C)CCCN(C(=O)CCc2cccs2)C1 (stereo not given)
 : 6, 5, ., ., 3, -14, ., .
[50] Cc1cc(C(F)(F)F)cc(NNC(=O)NC(=O)c2c(F)cccc2Cl)n1
 : -1, -3, -9, i, 25, ., 8, -3
[51] CCCC(c1nnnn1Cc1ccc2c(c1)OCO2)N1CCC(C(N)=O)CC1 (stereo not given)
 : 5, -3, 16, i, 2, ., -14, 0
[52] CCCCn1c(N)c(N(CC)C(=O)c2ccco2)c(=O)[nH]c1=O
 : 0, 1, -9, ., ., -12, ., .
[53] Cc1ccc(C)c(OCCC(=O)OCC(=O)NC2CCCC2)c1
 : -1, 2, -15, i, 14, -15, ., .
[54] COc1ccc(CC(=O)NNc2ncnc3c2cnn3-c2ccc(C)cc2)cc1
 : -9, -6, -6, i, -28, -6, 2, -3
[55] Cc1cc(/C=C2/NC(=O)NC2=O)c(C)n1-c1ccc(C#N)cc1
 : 1, 2, -13, i, -30, ., 2, -10
[56] CC(=O)Nc1ccc(/C=C/c2nc3ccccc3[nH]c2=O)cc1
 : -33, 8, -10, i, -14, -18, 12, 8
[57] CN(C)CCNC(=O)Nc1ccc(F)cc1F
 : 4, 6, -8, i, -20, -8, 0, 16
[58] C[C@H](CO)N1C[C@H](C)[C@@H](CN(C)C)Oc2c(NS(=O)(=O)c3ccccc3)cccc2C1=O
 : -2, -4, ., ., -23, 3&-6, ., .
[59] CCOc1ccc(S(=O)(=O)Nc2cccc(C(=O)NCCCn3ccnc3)c2)cc1
 : -4, -8, ., ., -2, -13, ., .
[60] CSc1cccc(NC(=O)COC(=O)C2CCN(S(=O)(=O)c3ccccc3)CC2)c1
 : 9, -1, -6, ., ., -8, ., .

Remaining list, next part.
Every second line gives: MT1-MMP act inh, MT1-MMP act inh RFP, CSC inhib, Rce1 inhib, Env fusion inh, Yeast UUG start, eIF4H inh, PABP FP inh
[61] O=C(c1cccc(-c2nnc(-c3ccccc3)o2)c1)N1CCCCC1
 : 0, 1, -4, i, ., ., 1, 9
[62] C=CCOc1ccc(CNCc2cccnc2)cc1
 : -2, -2, 3, i, -6, -5, -6, -2
[63] COc1cccc(C(=O)NCC(=O)N/N=C(C)\C=C\c2ccccc2)c1
 : -1, 2, 0, i, -1, ., -3, 16
[64] CN(C)Cc1ccccc1CCc1ccccc1
 : 0, 2, -6, i, -5, -19, ., .
[65] COc1ccc(NC(=O)CSc2n[nH]c(-c3ccco3)n2)cc1
 : 3, 5, -1, i, 8, -6, 9, 19
[66] NC(=O)COc1ccc(S(=O)(=O)N2CCCC2)cc1
 : 0, 0, ., ., -3, -13, ., .
[67] CCc1ccccc1NC(=O)c1cnn(-c2ccccc2)c1C
 : -2, -3, -4, i, -13, -10, -10, -11
[68] CN(C)S(=O)(=O)c1ccc(C(=O)NCC2CC2(Cl)Cl)cc1 (stereo not given)
 : -1, 2, -11, i, -24, ., -4, 5
[69] CCOC(=O)C(=CNc1cccc(C)n1)C(=O)OCC
 : 10, -2, 6, i, ., -12, -6, 4
[70] Cc1c(C(=O)Nc2cccc(-c3nnc4n3CCCCC4)c2)oc2ccccc12
 : 0, -5, -5, i, -8, -5, -4, -3
[71] Cc1cc(C)c(C)c(C(=O)c2ccccc2C(=O)O)c1C
 : -2, 1, -19, ., 2, ., 3, 2
[72] O=C(Nc1ccc2oc(=O)ccc2c1)c1ccc(-c2cccc([N+](=O)[O-])c2)o1
 : -11, -11, 20, i, 53, -17, 15, -12
[73] CC1(C)Cc2cccc(OCC(=O)OCc3nnc(-c4ccc([N+](=O)[O-])cc4)o3)c2O1
 : 2, 2, -7, ., ., -13, ., .
[74] N#Cc1nc(-c2cccc3ccccc23)oc1NCC1CCCO1 (stereo not given)
 : 0, -7, 18, i, -36, -24, -1, 6
[75] CC1=Nn2c(nnc2-c2ccccc2)SC1
 : -2, 2, -9, i, ., -11, 9, -3
